# Vaccinia stage: blocks a specific stage of Vaccinia orthopoxvirus infection | activity change (mCherry), % (test concentration not listed) | Vaccinia-infected cells, mCherry/Venus stage reporter fluorescence; stronger effect = lower value; some inactives read as strong as hits | AID 1053133 | actives 0.01% (n = 89,000);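 active means mCherry past -33% and 40 or more points under the early reporter, replicates agreeing; inconclusive means past -33% without that gap or agreement; tested in A549 cells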;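 further: scaled between vehicle wells and reference inhibitor wells; 23 nL library stock went into each well; one replicate is shown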
# Vaccinia stage Venus: further read-out of Vaccinia stage, marked with its call; activity change (Venus), %; measured here: Venus reporter, other viral stage;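 negative = less Venus signal; first of two replicates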
# An asterisk follows results filed as active; ? = inconclusive; / = no result given. An excerpt (hit frequency here may not be typical).
SMILES,Vaccinia stage,Vaccinia stage Venus
CCN1[C@@H]2c3ccc(-c4ccccc4F)c(=O)n3C[C@H]1[C@H](CO)[C@H]2C(=O)NCCOC,12,9
C[C@H]1CCCCO[C@H](CN(C)C(=O)Nc2ccc(F)cc2)[C@@H](C)CN([C@@H](C)CO)C(=O)c2cc(NC(=O)NC3CCCCC3)ccc2O1,-27,-13
COCC(=O)N(C)C[C@@H]1Oc2ncc(-c3ccccc3C)cc2C(=O)N([C@H](C)CO)C[C@@H]1C,21,21
C[C@H](CO)N1C[C@H](C)[C@H](CN(C)C(=O)Nc2ccc3c(c2)OCO3)Oc2ncc(-c3ccc(F)cc3)cc2C1=O,?,/
COc1ccc(NC(=O)N(C)C[C@@H]2Oc3ncc(C#CC(C)C)cc3C(=O)N([C@@H](C)CO)C[C@H]2C)cc1,-4,-4
C/C=C/c1ccc2c(c1)O[C@H](CN(C)C(=O)CN(C)C)[C@H](C)CN([C@@H](C)CO)S2(=O)=O,19,4
C[C@H]1CCCCO[C@H](CN(C)C(=O)CCCN(C)C)[C@@H](C)CN([C@@H](C)CO)C(=O)c2cc(NC(=O)Nc3ccc(F)cc3)ccc2O1,26,12
C[C@H](CO)N1C[C@H](C)[C@@H](CN(C)Cc2cccc(F)c2)Oc2ncc(C#C[C@@H](C)O)cc2C1=O,21,7
Cn1cnc(S(=O)(=O)N[C@@H]2C=C[C@@H](CC(=O)N3CCN(c4ccccc4)CC3)O[C@@H]2CO)c1,15,14
COc1ccc(S(=O)(=O)N(C)C[C@@H]2Oc3ccc(NS(C)(=O)=O)cc3CC(=O)N([C@H](C)CO)C[C@H]2C)cc1,-3,7
CC(=O)NC[C@H]1[C@@H](c2ccc(-c3ccccc3F)cc2)[C@@H](CO)N1CCC(F)(F)F,-1,7
CC(C)CNC[C@@H]1[C@@H](c2ccccc2)[C@@H](CO)N1Cc1ccc(F)cc1,-9,-7
CCNC(=O)[C@H]1[C@H](CO)[C@H]2Cn3c(cccc3=O)[C@@H]1N2Cc1cc(F)ccc1F,13,15
C/C=C/c1ccc([C@@H]2[C@H](CO)N(S(=O)(=O)CC)C23CN(C(C)=O)C3)cc1,2,3
O=C(C[C@@H]1CC[C@H]2[C@@H](COC[C@@H](O)CN2S(=O)(=O)c2ccccc2)O1)NCc1ccc2c(c1)OCO2,12,11
C[C@@H]1CN([C@H](C)CO)C(=O)c2ccccc2-c2ccccc2CO[C@@H]1CN(C)C(=O)Nc1ccnc(N2CCOCC2)c1,9,-3
COc1ccc(S(=O)(=O)Nc2ccc3c(c2)C(=O)N([C@H](C)CO)C[C@H](C)[C@@H](CN(C)Cc2ccc(C(=O)O)cc2)OCCCC[C@@H](C)O3)cc1,21,15
C[C@@H]1CN([C@H](C)CO)C(=O)c2cc(-c3ccc(F)cc3)cnc2O[C@@H]1CN(C)S(C)(=O)=O,8,4
CC(C)NC(=O)Nc1ccc2c(c1)C(=O)N([C@H](C)CO)C[C@@H](C)[C@H](CN(C)S(=O)(=O)c1cccs1)OCCCC[C@H](C)O2,0,0
C[C@H]1CN([C@@H](C)CO)C(=O)Cc2cc(NC(=O)CCC(F)(F)F)ccc2O[C@H]1CN(C)C(=O)Nc1cccc2ccccc12,13,21
CC(C)NC(=O)N(C)C[C@H]1Oc2ccc(NC(=O)Cn3cnnn3)cc2CC(=O)N([C@@H](C)CO)C[C@H]1C,7,3
O=C(c1cccnc1)N1C[C@H]2[C@@H](c3ccccc31)[C@H](CO)N2C(=O)C1CCCCC1,8,11
COc1ccc(NC(=O)Nc2ccc3c(c2)[C@H]2C[C@@H](CC(=O)N4CCN(C)CC4)O[C@@H](CO)[C@H]2O3)cc1,2,7
COc1ccc2c3c([nH]c2c1)[C@H](CO)N(C(=O)Nc1ccc(F)cc1)CC31CCN(CC2CC2)CC1,-21,-6
COc1ccc(CN(C)C[C@@H]2Oc3c(NC(=O)c4cc(C)nn4C)cccc3C(=O)N([C@H](C)CO)C[C@@H]2C)cc1,-3,-5
CC(=O)N1[C@@H](CO)[C@H](c2ccccc2)[C@@H]1CN(C(=O)NC(C)C)C1CCCC1,19,4
C[C@H]1CN([C@@H](C)CO)C(=O)c2cccc(NC(=O)c3cnccn3)c2O[C@H]1CN(C)C(=O)Nc1cccc2ccccc12,14,8
CN1c2ccc(-c3ccccc3)cc2[C@@H]2[C@@H](CCN2C(=O)CN2CCOCC2)[C@@H]1CO,14,5
CCNC(=O)C[C@@H]1CC[C@H](NC(=O)NC2CCCCC2)[C@@H](CO)O1,-1,2
Cc1cc(C(=O)Nc2cccc3c2O[C@@H](CN(C)Cc2ccncc2)[C@@H](C)CN([C@@H](C)CO)C3=O)n(C)n1,-5,-15

# Three of the compounds above, with values under each structure:
# Sequence of screens: Vaccinia stage, Vaccinia stage Venus
> CC(C)NC(=O)N(C)C[C@H]1Oc2ccc(NC(=O)Cn3cnnn3)cc2CC(=O)N([C@@H](C)CO)C[C@H]1C
→ 7, 3
> O=C(c1cccnc1)N1C[C@H]2[C@@H](c3ccccc31)[C@H](CO)N2C(=O)C1CCCCC1
→ 8, 11
> COc1ccc(CN(C)C[C@@H]2Oc3c(NC(=O)c4cc(C)nn4C)cccc3C(=O)N([C@H](C)CO)C[C@@H]2C)cc1
→ -3, -5

# The list goes on.
SMILES,Vaccinia stage,Vaccinia stage Venus
Cc1ccccc1-c1cnc2c(c1)C(=O)N([C@@H](C)CO)C[C@H](C)[C@@H](CN(C)Cc1ccccc1F)O2,-11,-10
COc1cccc(NC(=O)N[C@H]2CC[C@@H](CC(=O)Nc3ccc(-c4ccccc4)cc3)O[C@@H]2CO)c1,?,/
O=C1CN(S(=O)(=O)Cc2ccccc2)C[C@H]2[C@H](c3ccc(C#Cc4cccc(F)c4)cc3)[C@@H](CO)N12,-32,-25
C[C@@H]1CCCCO[C@@H](CN(C)S(=O)(=O)c2cccs2)[C@H](C)CN([C@@H](C)CO)C(=O)c2cc(NS(C)(=O)=O)ccc2O1,7,2
COc1ccc2c3c([nH]c2c1)[C@H](CO)N(C(=O)CN1CCOCC1)CC31CCN(C(=O)NC(C)C)CC1,12,7
C[C@@H]1CN([C@@H](C)CO)C(=O)c2cc(NC(=O)C3CC3)ccc2O[C@H]1CN(C)Cc1ccc(C(=O)O)cc1,5,0
C[C@@H]1CN([C@@H](C)CO)C(=O)c2cc(/C=C/c3ccccc3)cnc2O[C@@H]1CN(C)C(=O)Cc1cccnc1,11,-4
O=C(C[C@H]1C=C[C@@H](NC(=O)c2ccc3c(c2)OCO3)[C@H](CO)O1)NCc1ccc(Cl)cc1,8,4
C[C@@H]1CN([C@@H](C)CO)C(=O)c2cc(NC(=O)Cc3cn(C)c4ccccc34)ccc2O[C@@H]1CN(C)Cc1ccccc1,?,/
O=C(NCC1CCCCC1)[C@H]1[C@H](CO)[C@H]2Cn3c(ccc(-c4cccnc4)c3=O)[C@@H]1N2,8,9
CCC(=O)Nc1ccc2c(c1)C(=O)N(C)[C@H]1CC[C@H](CC(=O)NCC3CC3)O[C@@H]1CO2,11,0
Cc1ccc(S(=O)(=O)N(C)C[C@H]2OCCCC[C@@H](C)Oc3ccc(NS(=O)(=O)c4cccs4)cc3C(=O)N([C@H](C)CO)C[C@H]2C)cc1,?,/
C=CCN1C(=O)[C@@]2(O[C@@H](CCO)[C@H]([Si](C)(C)c3ccc(OC)cc3)[C@H]2C)c2cc(N3CCCCC3=O)ccc21,-9,-9
C[C@H](O)C#Cc1ccc2c(c1)O[C@@H](CN(C)C)[C@H](C)CN([C@@H](C)CO)S2(=O)=O,11,-3
C[C@H]1CCCCO[C@@H](CN(C)C(=O)CCCN(C)C)[C@@H](C)CN([C@@H](C)CO)C(=O)c2cc(NC(=O)c3ccncc3)ccc2O1,19,12
C[C@@H]1CN([C@H](C)CO)S(=O)(=O)c2ccc(C#Cc3ccccc3F)cc2O[C@@H]1CN(C)CC1CCOCC1,?,/
CCCC(=O)N1CC2(CCN(C(=O)NC(C)C)CC2)c2c([nH]c3cc(OC)ccc23)[C@@H]1CO,36,15
C[C@@H]1CN([C@@H](C)CO)C(=O)c2cc(NC(=O)Cc3ccccc3)ccc2O[C@@H](C)CCCCO[C@H]1CN(C)Cc1ccc(C(=O)O)cc1,9,2
CC(C)NC(=O)N(C)C[C@H]1Oc2c(NC(=O)c3ccc(-c4nccs4)cc3)cccc2C(=O)N([C@H](C)CO)C[C@H]1C,-1,-3
C/C=C/c1cnc2c(c1)C(=O)N([C@@H](C)CO)C[C@H](C)[C@H](CN(C)C(=O)Cc1cccnc1)O2,19,8

# Reformatted as tab-separated lines: entries from further up.
Structure	Vaccinia stage	Vaccinia stage Venus
C[C@H]1CCCCO[C@@H](CN(C)C(=O)CCCN(C)C)[C@@H](C)CN([C@@H](C)CO)C(=O)c2cc(NC(=O)c3ccncc3)ccc2O1	19	12
C=CCN1C(=O)[C@@]2(O[C@@H](CCO)[C@H]([Si](C)(C)c3ccc(OC)cc3)[C@H]2C)c2cc(N3CCCCC3=O)ccc21	-9	-9
C[C@H](O)C#Cc1ccc2c(c1)O[C@@H](CN(C)C)[C@H](C)CN([C@@H](C)CO)S2(=O)=O	11	-3
CCC(=O)Nc1ccc2c(c1)C(=O)N(C)[C@H]1CC[C@H](CC(=O)NCC3CC3)O[C@@H]1CO2	11	0
CC(C)NC(=O)N(C)C[C@H]1Oc2c(NC(=O)c3ccc(-c4nccs4)cc3)cccc2C(=O)N([C@H](C)CO)C[C@H]1C	-1	-3
C/C=C/c1cnc2c(c1)C(=O)N([C@@H](C)CO)C[C@H](C)[C@H](CN(C)C(=O)Cc1cccnc1)O2	19	8

# Carrying on:
SMILES,Vaccinia stage,Vaccinia stage Venus
C[C@@H]1CN([C@H](C)CO)C(=O)c2cc(C#CCc3ccccc3)cnc2O[C@@H]1CN(C)C(=O)C1CCOCC1,5,3
C[C@H](CO)N1C[C@H](C)[C@H](CN(C)C(=O)Nc2ccccc2)Oc2ncc(-c3cc4ccccc4o3)cc2C1=O,?,/
C[C@@H]1CCCCO[C@H](CN(C)CC2CCCCC2)[C@@H](C)CN([C@@H](C)CO)C(=O)c2cc(NS(=O)(=O)c3cn(C)cn3)ccc2O1,20,9
COc1ccc(NC(=O)N2C[C@@H](O)COC[C@H]3O[C@H](CC(=O)NC4Cc5ccccc5C4)CC[C@@H]32)cc1,5,-3
Cc1noc(C)c1NC(=O)Nc1ccc2c(c1)C(=O)N([C@H](C)CO)C[C@H](C)[C@H](CN(C)C(=O)Nc1ccccc1)OCCCC[C@@H](C)O2,29,21
CO[C@H]1CN(C)C(=O)c2ccc(NC(=O)C3CC3)cc2OC[C@@H](C)N(CC2CC2)C[C@@H]1C,-5,-10
O=C(NC1CCCC1)N1CCCCN2[C@H](CO)[C@H](c3ccc(-c4cncnc4)cc3)[C@@H]2C1,16,4
C[C@@H](NC(=O)C[C@@H]1C[C@H]2c3cc(NC(=O)CN(C)C)ccc3O[C@H]2[C@@H](CO)O1)c1ccccc1,10,11
COc1cccc(-c2cn(CC[C@@H]3CC[C@H](NC(=O)CC4CC4)[C@@H](CO)O3)nn2)c1,1,8
CN(C)CC(=O)N[C@H]1CC[C@@H](CC(=O)NCc2ccc(Cl)cc2)O[C@@H]1CO,13,9
C[C@@H]1CCCCO[C@@H](CN(C)S(=O)(=O)c2ccc(F)cc2)[C@@H](C)CN([C@H](C)CO)C(=O)c2cc(NC(=O)c3ccccc3)ccc2O1,-10,-1
C[C@@H]1CN([C@@H](C)CO)C(=O)c2cc(N(C)C)ccc2O[C@@H]1CN(C)Cc1ccncc1,9,0
CCC(=O)NC[C@H]1N[C@H](CO)[C@@H]1c1ccc(-c2ccccc2F)cc1,-8,-3
COc1ccc(NC(=O)N2C[C@H]3[C@@H](c4ccccc42)[C@H](CO)N3Cc2ccccn2)cc1,1,-2
O=C(c1ccccc1F)N1CC[C@H]2[C@H](CO)Nc3ccc(Br)cc3[C@H]21,3,-4
COc1ccccc1NC(=O)N1CC(=O)N2[C@H](CO)[C@@H](c3ccc(C#Cc4ccccc4)cc3)[C@H]2C1,-31,-23
CCCN(C)C[C@@H]1OCCCC[C@@H](C)Oc2ccc(NC(=O)Nc3cccc4ccccc34)cc2C(=O)N([C@H](C)CO)C[C@@H]1C,-1,0
COCC#Cc1ccc([C@@H]2[C@H]3CN(C(=O)Nc4cc(F)ccc4F)CCCCN3[C@H]2CO)cc1,-11,-18
O=C(C[C@@H]1C[C@H]2c3cc(NC(=O)Nc4ccc(C(F)(F)F)cc4)ccc3O[C@H]2[C@H](CO)O1)NCc1ccc2c(c1)OCO2,?,/
Cc1ccc(S(=O)(=O)Nc2ccc3c(c2)C(=O)N([C@H](C)CO)C[C@H](C)[C@@H](CN(C)Cc2ccncc2)OCCCC[C@H](C)O3)cc1,0,-9
Cc1ccc(S(=O)(=O)Nc2cccc3c2O[C@@H](CN(C)S(=O)(=O)c2c(C)noc2C)[C@@H](C)CN([C@H](C)CO)C3=O)cc1,-34,-29
C[C@H](CO)N1C[C@H](C)[C@H](CN(C)C)Oc2c(NS(=O)(=O)c3ccc(Cl)cc3)cccc2C1=O,6,0
C[C@H]1CN([C@@H](C)CO)S(=O)(=O)c2ccc(-c3ccccc3)cc2O[C@H]1CN(C)C(=O)Nc1ccccc1F,-10,-13
O=C(C[C@H]1C[C@H]2c3cc(NC(=O)Nc4ccccc4)ccc3O[C@H]2[C@H](CO)O1)NCCN1CCCCC1,-4,-3
C[C@@H]1CN([C@H](C)CO)S(=O)(=O)c2ccc(-c3cccc(C#N)c3)cc2O[C@H]1CN(C)C(=O)c1ccncc1,14,14
COc1ccccc1NC(=O)N1C[C@H](O)COC[C@H]2O[C@@H](CC(=O)NCc3ccccc3)CC[C@@H]21,-6,10
COc1ccccc1C(=O)Nc1ccc2c(c1)C(=O)N(C)[C@H]1CC[C@@H](CC(=O)NCCc3ccncc3)O[C@@H]1CO2,0,-2
COCC(=O)N1CC2(CCN(C(C)=O)CC2)c2c([nH]c3cc(OC)ccc23)[C@@H]1CO,-1,3
COc1ccc(NC(=O)N(C)C[C@@H]2OCCCC[C@@H](C)Oc3ccc(NS(=O)(=O)c4ccc(C)cc4)cc3C(=O)N([C@@H](C)CO)C[C@@H]2C)cc1,-1,-8
